Compound activity as filed in PubChem.
FGF22 binding = binders of human FGF22 protein, primary screen, FGF22 synaptogenesis inhibitor project, biophysical, thermal shift, single point; 340,000 compounds, 1.5% hits; AID 651658, 2012; recombinant FGF22 thermal shift, SYPRO orange fluorescence; percent of sucrose octasulfate shift, DMSO zero; calls only at 9.99 µM; Fibroblast growth factor 22 (Homo sapiens), Q9HCT0;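 active = melting point raised past a set limit in the mean and every replicate; inconclusive = no clear call; three in four hits are not shown here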
MLL AF4-AF9 inh = inhibitors of AF4 peptide binding to AF9, primary screen, biochemical, AlphaScreen, biotin-AF4 peptide, FLAG-AF9, single point. inhibition, % at 10 µM. 350,000 compounds, 0.47% hits. AID 651704, 2012;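 active = every replicate reaching a set inhibition limit, whatever the replicate mean, cut at about 25% in these data; inconclusive = mean inhibition reaches that limit but some replicates miss it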;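 note: 0% = plate neutral control median and 100% = total signal loss; the record names both 10 and 1 µM as test concentration; the first replicate is given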
RanGTP-Imp inh = inhibitors of RanGTP-importin-beta interaction, primary screen, biochemical, FRET, CFP-Ran, YFP-importin-beta, homogeneous; inhibition, % (concentration not given with the values); cell-free CFP-Ran/YFP-importin-beta FRET ratio; Ran GTPase (GTP-bound) - importin-beta complex; 300,000 compounds, 1.1% hits; AID 2216, 2009;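 active = most replicates above 15%; inconclusive = exactly half above 15%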;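 note: 0% = DMSO wells and 100% = Ran loaded with GDP instead of GTP; wells of about 40 µL received 100 nL stock; the first replicate is given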
Vif TR-FRET = inhibitors of Vif binding to APOBEC3G peptide, primary screen, biochemical, TR-FRET, GST-Vif 1-94, biotin-A3G peptide, dose response retest (AID 1117319); Virion infectivity factor (Human immunodeficiency virus type 1 group M subtype B (isolate …; inhibition, %; hits with a dose series show IC50 in µM; TR-FRET GST-Vif / biotin-A3G peptide binding; higher % means a stronger effect; test concentration not given here; strong numbers were not always called active; 260,000 compounds, 0.57% hits;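 active = above the screen mean plus three standard deviations and confirmed in dose response; inconclusive = results disagree or hit not tested in dose response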;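 note: Vif residues 1-94 fused to GST binding biotinylated APOBEC3G peptide 110-148; 0% = full assay without inhibitor and 100% = GST in place of GST-Vif; retest series ran down from 100 µM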
E coli growth = E. coli growth inhibition, primary screen, OD600 | Escherichia coli growth, 23 h; active compounds read low | OD600 absorbance (no concentration beside the values) | 330,000 compounds, 0.21% hits | AID 1053175, 2014;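 active = OD600 absorbance below the run mean of sample wells minus 3.6 SD, in any replicate, cut at about 0.56 in these data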;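 note: stock transfer was 300 nL into about 60 µL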
HNF4A DNA FP = change in binding of human HNF4A to DNA, primary screen, biochemical, fluorescence polarization, FITC-DNA | Hepatocyte nuclear factor 4-alpha (Homo sapiens), P41235 | 1 h | activity change, % at 10 µM | 360,000 compounds, 0.3% hits | AID 1224865, 2016; in the data active = activity change above about 30%, passing the limit was not always enough;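 note: controls were the assay level and a saturating level of protein; the project sought stronger binding though the title names inhibitors; some compounds called inactive have numbers as strong as hits; positive values seem to mean higher polarization but the record does not say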
Target sequence (P41235 whole entry, looked up): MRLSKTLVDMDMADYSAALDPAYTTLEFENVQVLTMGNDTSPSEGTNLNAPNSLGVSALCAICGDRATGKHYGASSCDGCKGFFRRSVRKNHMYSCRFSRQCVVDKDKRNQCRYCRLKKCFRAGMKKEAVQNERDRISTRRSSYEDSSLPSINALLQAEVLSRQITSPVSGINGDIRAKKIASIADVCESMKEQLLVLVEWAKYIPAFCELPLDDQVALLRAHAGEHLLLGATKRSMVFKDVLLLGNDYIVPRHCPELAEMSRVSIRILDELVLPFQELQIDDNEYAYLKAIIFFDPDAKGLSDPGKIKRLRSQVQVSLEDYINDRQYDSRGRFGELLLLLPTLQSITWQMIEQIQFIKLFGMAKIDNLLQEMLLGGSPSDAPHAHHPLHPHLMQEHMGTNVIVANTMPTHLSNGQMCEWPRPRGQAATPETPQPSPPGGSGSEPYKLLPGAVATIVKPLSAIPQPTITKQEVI
UCH37 inh = inhibitors of human UCH37 deubiquitinase, primary screen, biochemical, Ub-AMC cleavage, fluorescence | purified proteasome/UCH37 | inhibition, % (no concentration beside the values) | 330,000 compounds, 0.33% hits;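 active = mean of two replicates above 20%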;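 note: 0% = compound-free wells with enzyme and 100% = wells lacking proteasome; stock transfer was 100 nL into about 20 µL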
Target sequence (Q9Y5K5 whole entry, looked up): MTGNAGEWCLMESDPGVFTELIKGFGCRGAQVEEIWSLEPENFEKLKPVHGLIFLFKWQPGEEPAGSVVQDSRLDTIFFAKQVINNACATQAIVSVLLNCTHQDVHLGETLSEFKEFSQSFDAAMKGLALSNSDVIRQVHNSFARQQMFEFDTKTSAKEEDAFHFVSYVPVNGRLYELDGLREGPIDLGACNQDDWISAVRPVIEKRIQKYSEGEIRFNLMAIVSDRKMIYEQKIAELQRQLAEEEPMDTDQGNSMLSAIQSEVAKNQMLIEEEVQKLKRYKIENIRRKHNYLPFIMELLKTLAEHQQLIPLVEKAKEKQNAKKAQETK
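Reagent: Ub-AMC substrate; assay system: Proteasome-associated human UCH37 deubiquitinase; controls: no-proteasome and no-compound wells; read-out: % inhibition of Ub-AMC cleavage fluorescence; timing: 30 min preincubation with enzyme, 25 min cleavage at room temperature; signal: AMC fluorescence from Ub-AMC cleavage, excitation 355 nm, emission 460 nm; buffer or medium: Tris-HCl pH 7.4 plus ovalbumin, ATP-MgCl2, DTT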
Numbers without * were called inactive; i = inactive; ? = inconclusive; . = not tested or not shown; & = joins results of further samples. A portion of the library (hit frequency here may not be typical).

SMILES	FGF22 binding	MLL AF4-AF9 inh	RanGTP-Imp inh	Vif TR-FRET	E coli growth	HNF4A DNA FP	UCH37 inh
O=C(Nc1cccc(C(F)(F)F)c1)Nc1ccon1	i	0.7	4.0	5%	0.6	0.4	2.8
CCCCc1nnc(NC(=O)COC)s1	i	-1.6	-1.8	-9%	0.63	-0.9	0.8
CCOC(=O)c1ccccc1C(=O)N1CCOCCOCCOCC1	i	-0.6	3.9	.	0.7	2.4	4.2
O=C(c1cc(-c2ccccc2)nc2ccccc12)N1CCOCC1	.	.	-1.6	-2%	0.7	3.3	3.8
CCN1CCN(S(=O)(=O)c2ccc(OC)cc2)CC1	i	-3.0	-3.3	.	0.64	0.4	0.1
CCn1c(SCC(=O)NC(C)C(C)C)nc2cc(S(=O)(=O)N3CCOCC3)ccc21 (stereo not drawn)	i	-3.6	0.5	0%	0.73	-1.1	-2.8
CCOc1ccc(C(CC(=O)O)NC(=O)c2ccco2)cc1OC (stereo not drawn)	.	.	2.1	24%	0.72	-0.9	-1.1
O=C(Nc1cccc(F)c1)c1ccccc1-c1ccccc1	.	.	0.6	13%	0.63	7.8	1.2
CCOCCCn1c(SCC(=O)N(C)C2CCS(=O)(=O)C2)nc2ccccc2c1=O (stereo not drawn)	.	-2.0	-0.3	1%	0.65	0.4	4.2
O=S(=O)(O)c1ccc2c(c1)C(C(Cl)(Cl)Cl)OC(C(Cl)(Cl)Cl)O2 (stereo not drawn)	.	2.1	.	-11%	0.68	-0.6	7.6
CN(C)/C=C/C(=O)c1ccc(-c2ccc(Cl)cc2Cl)o1	.	0.1	-1.6	27%	0.67	1.4	-60
Cc1cccc(NC(=S)NNC(=O)c2nn(C)cc2Cl)c1	.	.	?	-6%	0.77	-2.0	0.3
CC(C)c1nc(Cl)c(C#N)c2c1CCC2	i	-6.2	0.2	2%	0.73	4.3	2.4
COc1ccccc1S(=O)Cc1ccc(C(=O)NCCc2ccc(Cl)cc2)o1 (stereo not drawn)	.	.	1.5	-2%	0.76	1.2	1.6
COCCCNC(=O)c1ccc(N2CCCC2)c(NS(=O)(=O)c2ccc(C)cc2)c1	.	.	0.9	20%	0.73	1.6	4.9
O=C1OCC(c2ccccc2)=C1c1ccc(S(=O)(=O)N2CCOCC2)s1	.	.	-0.3	8%	0.73	9.6	-2.1
CC(=O)c1sc(NC(=O)C=C(C)C)nc1C	.	.	0.7	9%	0.63	-6.5	5.9
Cc1ccc(C(CC(=O)N2CCCC2)c2ccccc2)c(O)c1 (stereo not drawn)	i	0.8	-2.7	0%	0.68	0.5	1.8
CC(=O)Nc1ccc(NC(=S)NC(=O)C2CC2)cc1	i	-3.4	1.1	1%	.	-1.4	.
CN(CC(=O)NCCc1ccccc1)S(=O)(=O)c1ccc(Br)cc1	.	.	1.5	9%	0.7	-3.1	1.4
CS(=O)(=O)c1ccc(Cl)c(C(=O)OCC(=O)NC2CCCCCCC2)c1	i	0.6	.	-4%	0.7	-2.5	0.7
CCN1CCN(C(=O)CCc2nnc(CCc3c[nH]c4ccccc34)o2)[C@@H](C)C1=O	i	-1.2	-1.0	.	0.72	0.6	1.9
COc1cc(NC(=O)C2CCN(S(=O)(=O)c3ccc(N4CCCC4=O)cc3)CC2)cc(OC)c1	i	-0.9	2.7	.	0.66	2.2	-1.1
CC(NC(=O)c1cc(F)c(F)cc1Cl)c1ccncc1 (stereo not drawn)	i	-0.5	-4.3	2%	0.71	0.4	-4.6
CC1(C(=O)NS(=O)(=O)c2cccc(F)c2)CCN1C(=O)CC1CCCC1 (stereo not drawn)	i	-7.9	.	.	.	2.2	.

New compounds follow
SMILES	FGF22 binding	MLL AF4-AF9 inh	RanGTP-Imp inh	Vif TR-FRET	E coli growth	HNF4A DNA FP	UCH37 inh
CN(C(=O)c1cc(C(=O)N(C)c2ccccc2)cc([N+](=O)[O-])c1)c1ccccc1	i	3.8	-0.8	.	0.7	5.5	1.7
O=C(O)/C(=C\c1ccccc1)c1ccccc1	i	-9.9	?	?	0.67	0.4	0.4
COc1ccc(S(=O)(=O)c2ccccc2)cc1NC(=O)c1c(F)cccc1F	i	-3.9	-0.4	-9%	0.66	3.5	0.6
O=C(Cc1cccs1)N1CCCC(c2nc3c(nnn3Cc3ccc(F)cc3)c(=O)[nH]2)C1 (stereo not drawn)	.	.	3.3	2%&-5%	0.76	-2.1	3.5
Cc1cc(-c2n[nH]c(=S)n2/N=C/c2ccc(C)s2)n[nH]1	.	.	5.1	-1%	.	-0.9	.
CCc1ccccc1NC(=O)c1cc(-c2ccco2)on1	i	-3.2	1.9	3%	0.67	2.4	0.5
O=C(NC1CCCCC1)c1cccc(N2C(=O)CCC2=O)c1	i	-1.0	.	.	0.66	1.8	-1.1
CC(C(=O)OCC(=O)Nc1cccc(S(=O)(=O)N(C)C)c1)N1C(=O)c2ccccc2C1=O (stereo not drawn)	i	2.8	2.9	1%	0.7	-0.3	0.6
CN(CC(=O)Nc1cccc(F)c1)CC(=O)N(C)CC(=O)Nc1ccccc1Br	i	-2.4	.	-14%	0.7	0.6	3.9
NC(=O)c1ccsc1NC(=O)COC(=O)Cc1ccccc1[N+](=O)[O-]	i	2.9	.	.	.	3.3	.
COc1cc(CCC(=O)NCc2ccc(S(N)(=O)=O)cc2)cc(OC)c1OC	i	-0.7	-0.5	-10%	0.66	0.0	0.2

Given as a markdown table: entries from further up.
| canonical_smiles | FGF22 binding | MLL AF4-AF9 inh | RanGTP-Imp inh | Vif TR-FRET | E coli growth | HNF4A DNA FP | UCH37 inh |
| --- | --- | --- | --- | --- | --- | --- | --- |
| CC(NC(=O)c1cc(F)c(F)cc1Cl)c1ccncc1 (stereo not drawn) | i | -0.5 | -4.3 | 2% | 0.71 | 0.4 | -4.6 |
| CC1(C(=O)NS(=O)(=O)c2cccc(F)c2)CCN1C(=O)CC1CCCC1 (stereo not drawn) | i | -7.9 | . | . | . | 2.2 | . |
| CN(C(=O)c1cc(C(=O)N(C)c2ccccc2)cc([N+](=O)[O-])c1)c1ccccc1 | i | 3.8 | -0.8 | . | 0.7 | 5.5 | 1.7 |
| O=C(O)/C(=C\c1ccccc1)c1ccccc1 | i | -9.9 | ? | ? | 0.67 | 0.4 | 0.4 |
| COc1ccc(S(=O)(=O)c2ccccc2)cc1NC(=O)c1c(F)cccc1F | i | -3.9 | -0.4 | -9% | 0.66 | 3.5 | 0.6 |
| O=C(Cc1cccs1)N1CCCC(c2nc3c(nnn3Cc3ccc(F)cc3)c(=O)[nH]2)C1 (stereo not drawn) | . | . | 3.3 | 2%&-5% | 0.76 | -2.1 | 3.5 |
| Cc1cc(-c2n[nH]c(=S)n2/N=C/c2ccc(C)s2)n[nH]1 | . | . | 5.1 | -1% | . | -0.9 | . |
| CCc1ccccc1NC(=O)c1cc(-c2ccco2)on1 | i | -3.2 | 1.9 | 3% | 0.67 | 2.4 | 0.5 |
| O=C(NC1CCCCC1)c1cccc(N2C(=O)CCC2=O)c1 | i | -1.0 | . | . | 0.66 | 1.8 | -1.1 |
| CC(C(=O)OCC(=O)Nc1cccc(S(=O)(=O)N(C)C)c1)N1C(=O)c2ccccc2C1=O (stereo not drawn) | i | 2.8 | 2.9 | 1% | 0.7 | -0.3 | 0.6 |
| CN(CC(=O)Nc1cccc(F)c1)CC(=O)N(C)CC(=O)Nc1ccccc1Br | i | -2.4 | . | -14% | 0.7 | 0.6 | 3.9 |
| NC(=O)c1ccsc1NC(=O)COC(=O)Cc1ccccc1[N+](=O)[O-] | i | 2.9 | . | . | . | 3.3 | . |
| COc1cc(CCC(=O)NCc2ccc(S(N)(=O)=O)cc2)cc(OC)c1OC | i | -0.7 | -0.5 | -10% | 0.66 | 0.0 | 0.2 |
